Bioassay records (PubChem)
Ecoli rRNA inh = inhibitors of bacterial rRNA selective over humanized ribosomes; E. coli WT GFP vs humanized-ribosome RFP mutants, fluorescence, 24 h; active compounds read low; DMSO median 0, no signal -100; GFP signal change (wild-type ribosome), % (test concentration not listed); actives 1.6% (n = 350,000); AID 720706;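 active = significant combined selectivity score with lowered wild-type GFP, culture density cut under 30%, mutant RFP and density less affected; inactive = any of these conditions unmet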; also: one replicate is shown; some compounds called inactive have numbers as strong as hits
UCH37 inh = blocks the human deubiquitinase UCH37; purified proteasome/UCH37, Ub-AMC cleavage fluorescence; inhibition, % (test concentration not listed); actives 0.33% (n = 330,000);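 active = mean of two replicates above 20%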;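 also: 0% = compound-free wells with enzyme and 100% = wells lacking proteasome; stock transfer was 100 nL into about 20 µL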
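Reagent: Ub-AMC substrate; assay system: Proteasome-associated human UCH37 deubiquitinase; controls: no-proteasome and no-compound wells; read-out: % inhibition of Ub-AMC cleavage fluorescence; timing: 30 min preincubation with enzyme, 25 min cleavage at room temperature; signal: AMC fluorescence from Ub-AMC cleavage, excitation 355 nm, emission 460 nm; buffer or medium: Tris-HCl pH 7.4 plus ovalbumin, ATP-MgCl2, DTT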
ALR H2O2 inh = blocks human ALR sulfhydryl oxidase activity; purified ALR, DTT oxidation, H2O2 HRP-luminol luminescence; inhibition, % (no concentration beside the values); actives 3.8% (n = 290,000); AID 485317;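 active = mean and each replicate at 75% or more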;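 also: stock transfer was 7.5 nL into about 7.5 µL; 0% = neutral wells and 100% = wells with inactivated enzyme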
Target sequence (P55789 whole entry, looked up): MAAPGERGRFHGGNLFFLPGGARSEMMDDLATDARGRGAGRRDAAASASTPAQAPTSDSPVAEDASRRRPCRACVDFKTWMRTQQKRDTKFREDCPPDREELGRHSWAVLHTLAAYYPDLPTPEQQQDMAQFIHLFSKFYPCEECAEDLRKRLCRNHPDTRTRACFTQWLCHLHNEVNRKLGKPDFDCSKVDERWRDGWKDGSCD
Ecoli growth = blocks Escherichia coli growth; OD600, 23 h; active compounds read low; actives 0.21% (n = 330,000); OD600 absorbance (test concentration not listed);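 active = OD600 absorbance below the run mean of sample wells minus 3.6 SD, in any replicate, cut at about 0.56 in these data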;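 also: stock transfer was 300 nL into about 60 µL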
B2AR ag = human beta-2 adrenergic receptor agonism by FAP; response, % (test concentration not listed); Am2.2-beta2AR cells, FAP receptor internalization, flow cytometry; reference of the scale not given here; actives 0.43% (n = 340,000); P07550;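 active = response above a set limit, near 3 SD of response in nonfluorescent compounds, cut at about 42% in these data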;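 also: stock transfer was 100 nL into about 11 µL; a reference agonist was the positive control; negative values mostly stem from fluorescent compounds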
Target sequence (P07550 whole entry, looked up): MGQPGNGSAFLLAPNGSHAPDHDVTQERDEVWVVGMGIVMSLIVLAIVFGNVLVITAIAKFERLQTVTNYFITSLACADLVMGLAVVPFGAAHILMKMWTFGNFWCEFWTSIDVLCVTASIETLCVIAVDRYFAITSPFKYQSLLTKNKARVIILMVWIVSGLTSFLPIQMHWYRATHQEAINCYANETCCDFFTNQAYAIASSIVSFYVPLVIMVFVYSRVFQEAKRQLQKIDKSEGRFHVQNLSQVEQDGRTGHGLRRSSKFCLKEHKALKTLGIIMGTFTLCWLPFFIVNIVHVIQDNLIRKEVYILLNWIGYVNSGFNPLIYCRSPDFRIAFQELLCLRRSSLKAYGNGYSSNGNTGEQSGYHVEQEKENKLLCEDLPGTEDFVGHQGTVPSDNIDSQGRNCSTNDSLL
FGF22 binding = FGF22 (human) thermal shift binding; recombinant FGF22 thermal shift, SYPRO orange fluorescence; percent of sucrose octasulfate shift, DMSO zero; calls only at 9.99 µM; actives 1.5% (n = 340,000); AID 651658;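 active = melting point raised past a set limit in the mean and every replicate; three in four hits are not shown here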
HNF4A DNA FP = change in binding of human HNF4 alpha to DNA; HNF4a-FITC DNA binding, fluorescence polarization, 1 h; activity change, % at 10 µM; actives 0.3% (n = 360,000); AID 1224865; in the data active = activity change above about 30%, passing the limit was not always enough;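 also: controls were the assay level and a saturating level of protein; the project sought stronger binding though the title names inhibitors; some compounds called inactive have numbers as strong as hits; positive values seem to mean higher polarization but the record does not say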
Target sequence (P41235 whole entry, looked up): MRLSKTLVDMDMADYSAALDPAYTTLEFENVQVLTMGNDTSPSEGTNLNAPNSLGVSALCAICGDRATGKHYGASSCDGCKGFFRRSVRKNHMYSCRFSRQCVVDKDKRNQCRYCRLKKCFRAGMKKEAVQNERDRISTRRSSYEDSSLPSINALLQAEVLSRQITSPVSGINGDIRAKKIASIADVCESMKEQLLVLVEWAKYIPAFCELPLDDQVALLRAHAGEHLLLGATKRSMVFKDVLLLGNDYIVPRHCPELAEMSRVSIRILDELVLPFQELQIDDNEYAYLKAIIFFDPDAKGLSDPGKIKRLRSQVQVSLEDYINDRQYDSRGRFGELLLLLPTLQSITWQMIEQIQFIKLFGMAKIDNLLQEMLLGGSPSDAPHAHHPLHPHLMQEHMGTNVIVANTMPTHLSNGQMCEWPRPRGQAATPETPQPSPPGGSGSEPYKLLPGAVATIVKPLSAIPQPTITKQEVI
Ecoli rRNA inh OD600 = further read-out of Ecoli rRNA inh, marked with its call; OD600 change, %; measured here: OD600 growth;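 optical density of the mix in the first replicate; 0 = DMSO median and -100 = no signal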
Ecoli rRNA inh RFP = further read-out of Ecoli rRNA inh, marked with its call; RFP signal change, %; measured here: RFP humanized mutant strains;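 first replicate; 0 = DMSO median and -100 = no signal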
Starred values were filed as active, the others as inactive; i = inactive; / = not tested or not shown; & = joins results of further samples. Only part of the results is shown (hit frequency here may not be typical).

SMILES	Ecoli rRNA inh	Ecoli rRNA inh OD600	Ecoli rRNA inh RFP	UCH37 inh	ALR H2O2 inh	Ecoli growth	B2AR ag	FGF22 binding	HNF4A DNA FP
O=C1C2C3C=CC(C3)C2C(=O)N1/N=C/c1ccc(-c2ccccc2[N+](=O)[O-])o1 (configuration not stated)	/	/	/	/	-16	/	-3	/	1.5
CC1(C)CC(=O)c2cnc(N)nc2C1	/	/	/	5.1	3	0.67	1	/	2.2
N=C1C(c2nc3ccccc3s2)=C(O)CN1NC(=O)c1ccccc1[N+](=O)[O-]	5	-4	-6.3	4.1	-5	0.59	-1	i	-4.2
Cc1nn(CC(=O)NNC(=O)c2ccccc2F)c([N+](=O)[O-])c1Br	10	11	2.0	4.7	-3	0.66	-3	i	2.7
O=C(Cc1ccc(NC(=O)C2CCN(C(=O)C3CCCCC3)CC2)cc1)Nc1ccc(C(=O)N2CCOCC2)cc1	13	7	-3.2	1.3	/	0.69	1	/	-0.9
Cn1c(=O)c2cc(NC(=O)NCc3ccc(Cl)cc3Cl)ccc2n1Cc1ccccc1	4	5	1.9	/	/	/	/	i	-5.0
O=C(NCC1COc2ccccc2O1)C1CCCN(S(=O)(=O)c2cccc3nsnc23)C1 (configuration not stated)	/	/	/	0.0	-48	0.69	-17	/	5.5
COc1cccc(N/C=C/c2onc(C)c2[N+](=O)[O-])c1	/	/	/	4.0	/	0.74	5	/	4.8
COc1ccc(C(=O)Oc2cc(/C=N/NS(=O)(=O)c3ccc(C)cc3)ccc2OC)cc1	/	/	/	/	-3	/	-1	/	-1.6
COc1ccc(OC)c(/C=C2\S/C(=N/NC(=O)c3ccc4ccccc4c3)NC2=O)c1	3	6	-5.4	-3.1	-4	/	5	i	1.3
CCCc1cc(C(=O)Nc2ccccc2SC)no1	0	-24	-1.6	-0.3	-5	0.76	-1	i	0.0
Cc1[nH]c2ccccc2c1/C=N/NC(=S)NCc1ccccc1	-60	-75	-20	/	17	/	-1	/	14
Cc1c(CNC(=O)C2CCC(=O)N(CCc3ccccc3)C2)cnn1C (configuration not stated)	7	17	-1.2	1.8	-20	0.66	6	i	-0.3
CCCC[N+](CC#CCO)(CC#Cc1ccccc1)CCCC	-10	2	4.1	4.0	-4	0.61	12	i	-6.3
COc1cc(C(c2nnnn2C(C)(C)C)N2CCN(C)CC2)cc(OC)c1OC (configuration not stated)	/	/	/	0.4	/	0.78	-1	/	2.0
O=S(=O)(c1ccc(Br)s1)N1CCC(Cc2ccccc2)CC1	/	/	/	2.5	-3	0.68	6	/	17
CC(C)OC(=O)CCC(=O)Nc1ccc(F)cc1	3	11	-1.2	1.0	-7	0.69	6	i	1.6
Cc1cccc(C(=O)N2CCC(=O)N([C@H](COCc3cccc(C(F)(F)F)c3)Cc3ccccc3)CC2)c1	0	-7	0.0	/	/	/	/	i	0.2
CC(C)[C@H](NC(=O)c1ccccc1)C(=O)OCc1nnc(-c2ccccc2)o1	-8	-11	-4.0	3.8	-20	0.66	0	i	2.2
CC1(C)CC(=O)c2c(nn(-c3ccccc3)c2N)C1	/	/	/	1.2	-5	0.73	-7	/	3.3

Taken from above:
`CC1(C)CC(=O)c2c(nn(-c3ccccc3)c2N)C1` @ HNF4A DNA FP: 3.3
`O=C1C2C3C=CC(C3)C2C(=O)N1/N=C/c1ccc(-c2ccccc2[N+](=O)[O-])o1` (configuration not stated) @ ALR H2O2 inh: -16

Following part:
SMILES	Ecoli rRNA inh	Ecoli rRNA inh OD600	Ecoli rRNA inh RFP	UCH37 inh	ALR H2O2 inh	Ecoli growth	B2AR ag	FGF22 binding	HNF4A DNA FP
Cc1cccc(NC(=O)Nc2ccc3c(c2)N(C)C(=O)CS3)n1	-2	-1	-0.3	5.2	20	0.74	10	i	4.5
CS(=O)(=O)N1CCN(C(=O)c2cc(-c3cccnc3)nc3ccc(Cl)cc23)CC1	7	6	-0.8	1.5	-11	0.67	-6	i	1.0
CCOC(=O)c1ccccc1NC(=O)C1=COCCO1	9	-2	10	0.5	4	0.69	-1	i	3.3
Cc1nnc(Nc2ccc(Cl)c(C(F)(F)F)c2)[nH]c1=O	29	39	2.9	3.7	2	0.69	-9	i	0.5
COc1cc2ccc(=O)oc2c(O[C@@H]2O[C@H](CO)[C@@H](O)[C@H](O)[C@H]2O)c1O	2&15	5&17	-2.9&0.2	i	21&-55	0.69	-17&3	i	0.2&-1.7
O=c1ccccn1Cc1c(Cl)cccc1Cl	13	11	-9.8	0.9	0	0.65	4	i	4.9
CCCC1=NN2C(=N)/C(=C\c3cc(C)n(Cc4ccccc4)c3C)C(=O)N=C2S1	-4	-1	11	-3.5	6	0.64	-1	i	-0.9
COCCN(C(=O)Cc1ccc(OC)c(OC)c1)c1nc(-c2cc(OC)ccc2OC)cs1	4	2	-3.0	-0.1	-10	0.73	3	i	1.4
N#Cc1cnc(Sc2ccccc2)nc1	17	7	1.3	7.4	-6	0.71	-7	i	-1.1
CC1COc2ccccc2N1C(=O)c1ccccc1Cl (configuration not stated)	-3	-15	0.4	1.9	-11	0.65	2	i	1.1
COc1ccc2c(COC(=O)CNS(=O)(=O)c3ccccc3)cc(=O)oc2c1	3	7	7.8	-243	-3	0.66	0	i	-1.3
O=C1Nc2ccccc2-n2nnnc2C1N1CCN(C(=O)c2ccco2)CC1 (configuration not stated)	8	10	-2.5	/	/	/	/	i	0.7
CC(NC(=O)Cn1cnnn1)C12CC3CC(CC(C3)C1)C2 (configuration not stated)	/	/	/	4.7	-3	0.73	5	/	2.9
O=C(O)/C=C\C(=O)Nc1ccccc1C(=O)N1CCC(O)(c2ccc(Cl)cc2)CC1	10	10	0.4	/	/	/	-3	i	-2.3
Cc1cccc(C)c1-n1c(C)cc(/C=C2\NC(=O)NC2=O)c1C	/	/	/	1.2	61	0.68	6	/	2.7
CCN(C(=O)COC(=O)c1c(C)nn(-c2ccccc2)c1C)C1CCS(=O)(=O)C1 (configuration not stated)	6	8	-1.2	3.1	6	0.69	-2	i	6.9
COc1ccc(C(=O)NNC(=O)CN(C)S(=O)(=O)c2ccc(Cl)cc2)c(OC)c1OC	1	-3	-1.3	2.9	-3	0.69	6	/	1.6
O=C(NC1CCC1)C1CCC(=O)N(Cc2ccc(Cl)cc2)C1 (configuration not stated)	11	20	1.3	/	/	/	/	i	3.7
CCCc1ccc2oc(C(=O)NCCc3cnn(C)c3)c(C)c2c1	-30	-56	3.8	0.6	6	0.63	5	i	0.1
Cn1c2ccccc2c2cc(/C=C(\NC(=O)c3ccccc3)C(=O)O)ccc21	-29	-44	-10	14	86*	0.73	4	i	0.0
CCCCCCNC(=O)Nc1ccccc1	/	/	/	2.7	-5	0.68	-5	/	-0.1
CCOC(=O)CNS(=O)(=O)c1ccc(S(=O)(=O)N2CCCC2)cc1	9	5	4.2	5.0	-7	0.69	8	i	0.7
O=C(c1cc([N+](=O)[O-])ccc1N1CCCCC1)N1CCc2ccccc21	-28	-32	-3.8	5.6	1	0.71	5	i	2.3
O=C1/C(=C\c2cccc(O)c2O)SC(=S)N1Cc1ccccc1	1	5	-2.5	/	/	/	-57	i	1.6
COc1ccc(C(=O)Nc2ncccc2C)cc1S(=O)(=O)N1CCCc2ccccc21	7	9	2.2	6.3	/	0.64	-1	i	-2.1
CC1(C)Cc2nc3[nH]c(=S)[nH]c(=O)c3cc2CO1	7	4	-8.8	7.2	17	0.69	3	i	0.8
COc1ccc(NCC(=O)N/N=C/C(C)c2ccccc2)cc1 (configuration not stated)	6	-7	-3.0	/	-32	/	-1	i	0.1
COCCNC(=O)C(c1ccc(F)cc1)N(Cc1ccccc1)C(=O)CCC(=O)Nc1ccccn1 (configuration not stated)	2	9	-0.5	0.7	1	0.7	0	i	6.7
COc1cc(NC(=O)CNC(=O)Cn2cnc3sc(C)c(C)c3c2=O)cc(OC)c1OC	3	-5	3.5	/	/	/	/	/	-2.6
O=C(COC(=O)C1CC(=O)N(Cc2ccco2)C1)Nc1nc(-c2ccc(F)cc2)cs1 (configuration not stated)	1	1	2.7	2.8	20	0.68	11	i	3.5
COc1cccc(-c2nc(CS(=O)CC(=O)NCCCOC(C)C)c(C)o2)c1 (configuration not stated)	/	/	/	3.4	99*	0.68	17	/	0.0
CCCc1nc2ccccc2c(C(=O)N(CC)CC(=O)NCc2cccs2)c1CC	-4	-9	-2.9	2.7	/	0.72	-3	i	-1.3
CCc1cccc(NC(=O)c2ccc(Cn3c(=O)[nH]c4ccsc4c3=O)cc2)c1	-2	15	-0.4	-0.1	-1	0.78	1	i	-2.1
CCOc1ccccc1OCCCC(=O)NC1=NCCS1	/	/	/	1.8	-7	0.72	2	/	-1.6
C[C@@H]1CC=C[C@@H]2[C@H]1C(=O)N(Cc1ccccc1)[C@H]2c1cccc(Br)c1	-4	6	-3.1	0.9	/	0.66	-4	i	6.0
CCOC1=C2[C@H]([C@H]3C(=O)N(c4ccccc4)C(=O)[C@H]3C1)[C@@H](c1ccccc1)N(S(=O)(=O)c1ccc(C)cc1)[C@H]2c1ccccc1	20	21	-0.9	/	/	/	/	i	1.0
NC(=O)CN1CCOCCN(CC(N)=O)CCOCC1	/	/	/	3.4	-1	0.68	/	/	/
O=c1[nH]c2cc3c(cc2cc1C(c1nnnn1Cc1ccccc1)N1CCCCCC1)OCCO3 (configuration not stated)	/	/	/	-27	-22	0.67	-3	/	7.8
Cc1noc(C)c1COc1ccccc1C(=O)NC(C)CCc1ccccc1 (configuration not stated)	-16	-21	-1.1	1.3	/	0.66	4	i	-2.8
COCCn1c(=NC(=O)CSCC(=O)N2CCOCC2)sc2ccccc21	12	5	-1.6	5.2	5	0.73	0	i	0.8

Structural class: the entries above with a COOH group (two)
SMILES	Ecoli rRNA inh	Ecoli rRNA inh OD600	Ecoli rRNA inh RFP	UCH37 inh	ALR H2O2 inh	Ecoli growth	B2AR ag	FGF22 binding	HNF4A DNA FP
O=C(O)/C=C\C(=O)Nc1ccccc1C(=O)N1CCC(O)(c2ccc(Cl)cc2)CC1	10	10	0.4	/	/	/	-3	i	-2.3
Cn1c2ccccc2c2cc(/C=C(\NC(=O)c3ccccc3)C(=O)O)ccc21	-29	-44	-10	14	86*	0.73	4	i	0.0

Additional structures:
SMILES	Ecoli rRNA inh	Ecoli rRNA inh OD600	Ecoli rRNA inh RFP	UCH37 inh	ALR H2O2 inh	Ecoli growth	B2AR ag	FGF22 binding	HNF4A DNA FP
O=C1CCCN1C(=O)CSc1ccc2ccccc2n1	-5	-1	-2.8	0.5	0	0.65	-1	i	4.2
O=C1c2ccccc2[C@@H]2C[C@@H](O)[C@H](Nc3cccc4ccccc34)CCN12	-12	-28	-5.8	-17	/	0.71	12	i	9.4
C=CCC(NCc1ccccc1)c1ccccc1 (configuration not stated)	/	/	/	1.9	-41	0.68	9	/	-2.4
O=C(CS(=O)(=O)c1cn(Cc2ccc(Cl)cc2)c2ccccc12)N1CCCC1	-12	-28	1.5	0.7	-16	0.78	-8	i	-0.2
COc1cccc(CNC(=O)C(=O)N2CCC3(CC2)OCCN3S(=O)(=O)c2ccc(C)cc2)c1	-7	-8	-3.1	2.1	0	0.65	-2	/	-1.9
Cc1cc(C(C)(C)C)cc(C)c1CCNC(=O)c1ccc[n+]([O-])c1	-16	-42	7.8	-0.2	-1	0.69	11	i	-0.4
COc1ccc(NC(=O)C(NC(C)=O)C(=O)NCc2ccccc2OC)cc1 (configuration not stated)	/	/	/	4.0	0	0.78	-9	/	-2.1
COc1ccccc1CNC(=O)c1cccc2c1C(=O)N(Cc1cccnc1)C2	-2	-2	-1.5	3.5	-8	0.73	-21	i	1.8
CC(=O)c1cccc(-c2ccnc3c2CC(C(=O)NCc2ccco2)O3)c1 (configuration not stated)	-2	6	3.6	/	/	/	/	i	-5.5
